Screens (PubChem)
GIRK2 activ: GIRK2 channel activation; P48051; HEK293-GIRK2 thallium flux, Thallos fluorescence; calls only for hits at 25 µM; actives 0.05% (n = 63,000); AID 1259325;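 active = among the strongest 0.2% of first-round signals and kept after retests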;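 note: first round at about 10 µM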
Target sequence (P48051 whole entry, looked up): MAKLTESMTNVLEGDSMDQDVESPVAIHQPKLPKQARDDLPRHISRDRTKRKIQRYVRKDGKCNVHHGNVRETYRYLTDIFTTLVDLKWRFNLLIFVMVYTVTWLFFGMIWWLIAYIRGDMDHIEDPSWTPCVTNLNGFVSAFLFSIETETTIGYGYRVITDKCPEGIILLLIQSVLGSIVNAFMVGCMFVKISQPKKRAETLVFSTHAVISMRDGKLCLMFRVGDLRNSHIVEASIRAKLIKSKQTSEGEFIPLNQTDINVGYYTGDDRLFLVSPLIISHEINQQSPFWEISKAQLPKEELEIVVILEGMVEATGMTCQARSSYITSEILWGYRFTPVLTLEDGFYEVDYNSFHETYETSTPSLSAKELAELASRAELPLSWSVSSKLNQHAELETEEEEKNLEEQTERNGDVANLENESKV
Calls only; i = inactive. The list is partial (hit frequency here may not be typical).

SMILES	GIRK2 activ
Cc1ccccc1C(=O)NCC#CCN1CCOCC1	i
C[C@@H]1NC(=O)[C@H](CCCCCC(=O)[C@@H]2CO2)NC(=O)[C@H]2CCCN2C(=O)[C@H](Cc2ccccc2)NC1=O	i
CCC1(c2ccc(N)cc2)CCC(=O)NC1=O (stereo not drawn)	i
O=S(=O)(NCC#CCN1CCOCC1)C1CC1	i
O=C(Cc1ccccc1Cl)N1CCN(CC(O)C2CC2)CC1 (stereo not drawn)	i
CO[C@H]1[C@H](O)[C@H](O[C@H]2CC[C@]3(C)C4CC[C@]5(C)[C@H](C6=CC(=O)OC6)CC[C@]5(O)C4CC[C@@H]3C2)O[C@@H](C)[C@@H]1O[C@@H]1O[C@H](CO[C@@H]2O[C@H](CO)[C@@H](O)[C@H](O)[C@H]2O)[C@@H](O)[C@H](O)[C@H]1O (stereo partly drawn)	i
CC(=O)c1cccc(NC(=O)c2cc3cccnc3n(Cc3ccccc3F)c2=O)c1	i
CN(C)CC#CCNC(=O)c1ccccc1C(F)(F)F	i
CN(CCO)CC1COCCN1C(=O)COc1ccc2ccccc2c1 (stereo not drawn)	i
CC(C)(C)NC(=O)NCC#CCN1CCOCC1	i
O=C(NCC#CCN1CCOCC1)Nc1ccccc1	i
N#CC(C#N)=Cc1ccc([N+](=O)[O-])c(O)c1	i
CCCCCCCC/C=C\CCCCCCCC(=O)Nc1ccccc1	i
O=C(Nc1ccc2c(c1)OCO2)c1c(O)c2sccc2n(Cc2ccccc2)c1=O	i
O=C(NCC#CCN1CCOCC1)c1ccc(Br)cc1	i
CC(=O)OC[C@]12C[C@H](O)C(C)=C[C@H]1O[C@@H]1[C@H](O)[C@@H](OC(C)=O)[C@@]2(C)[C@]12CO2	i
C/C(O)=C(\C#N)C(=O)Nc1cc(Br)ccc1Br	i
CCC(=O)[C@@H](C)[C@@H](O)[C@H](C)C[C@@H](C)[C@H]1OC(=O)C[C@@]2(O)CC=C(C)[C@H](O2)/C(C)=C/CCC[C@@H](O[C@H]2C[C@@H](OC(N)=O)[C@H](O)[C@@H](C)O2)/C=C/[C@H](C)C[C@H]1C	i
COc1ccc(CC(=O)N2CCN(CCn3cccn3)CC2)cc1OC	i
C[C@]12CC[C@H](OC3OC(CO)C(O)C(O)C3OC3OC(CO)C(O)C(O)C3O)C[C@@H]1CC[C@@H]1C2CC[C@]2(C)[C@@H](C3=CC(=O)OC3)CC[C@]12O (stereo partly drawn)	i
Cc1csc(CN2CCN(C(=O)Cc3cccc4ccccc34)CC2)n1	i
O=C(NCC#CCN1CCOCC1)Nc1cccs1	i
CCOC(=O)c1cncn1C(C)c1ccccc1 (stereo not drawn)	i
O=c1c2ccccc2[se]n1-c1ccccc1	i
Cc1cc(Br)ccc1NC(=O)c1cc2cccnc2n(Cc2ccccc2)c1=O	i
SMILES	GIRK2 activ
C[N+]1(CCC(C(N)=O)(c2ccccc2)c2ccccc2)CCCCC1	i
C=C[C@H]1[C@H](O[C@@H]2O[C@H](CO)[C@@H](O)[C@H](O)[C@H]2O)OC=C2C(=O)OCC[C@H]21	i
COC(=O)c1cc([N+](=O)[O-])cc([N+](=O)[O-])c1	i
O=C(O)CNC(=O)c1c(O)c2ccccc2n(Cc2ccccc2)c1=O	i
CSc1ccccc1NC(=O)c1cc2cccnc2n(Cc2ccc(F)cc2)c1=O	i
O=C(Cc1ccc(F)cc1)N1CCN(Cc2nc(-c3ccco3)cs2)CC1	i
CN(CCO)CC1COCCN1C(=O)Cc1cccs1 (stereo not drawn)	i
O=C(Cc1ccc(F)cc1)NCC#CCN1CCCC1	i
COc1cc(/C=C2\Oc3c(ccc(OC(=O)N(C)C)c3C)C2=O)cc(OC)c1OC	i
COc1cccc(NC(=O)c2cc3cccnc3n(Cc3ccc(F)cc3)c2=O)c1	i
O=C(Cc1c(F)cccc1Cl)N1CCN(Cc2ccsc2)CC1	i
Cc1nc2ccc(NC(=O)C3CCCC3)cc2c(=O)n1-c1ccccc1	i
O=C(Nc1ccc(Cl)cc1C(=O)c1ccccc1)c1nnn(-c2ccc(F)cc2)n1	i
Cc1nc(C)c(C(=O)NCC#CCN2CCCC2)s1	i
Cn1c(CN2CCN(C(=O)Cc3cccs3)CC2)nc2ccccc21	i
CN1C(=O)CN=C(c2ccccc2)c2cc([N+](=O)[O-])ccc21	i
CN1CCN(Cc2nc3ccccc3c(=O)[nH]2)CC1	i
COc1ccc(-c2csc(CN3CCN(C(=O)Cc4ccc(OC)c(OC)c4)CC3)n2)cc1	i
Cc1ccc(NC(=O)c2cc3cccnc3n(Cc3ccccc3)c2=O)c(C)c1	i
CC(N)Cc1c[nH]c2ccc(OCc3cccs3)cc12 (stereo not drawn)	i
O=C(Nc1ccc(Br)cc1F)c1cc2cccnc2n(Cc2ccccc2)c1=O	i
O=C(NCC#CCN1CCCC1)c1cc(C2CC2)on1	i
COC(=O)c1sccc1S(=O)(=O)NCC#CCN(C)C	i
Cc1cc(C)c2c(CN3CC4CC(C3)c3cccc(=O)n3C4)cc(=O)oc2c1 (stereo not drawn)	i
NC(Cc1ccccc1)Cc1ccccc1	i
SMILES	GIRK2 activ
CCOC(=O)C(=O)N1CC2CC(C1)c1cccc(=O)n1C2 (stereo not drawn)	i
O=C(/C=C/c1ccco1)N1CC2CC(C1)c1cccc(=O)n1C2 (stereo not drawn)	i
CCOC(=O)C1(c2ccccc2)CCN(CCC(C#N)(c2ccccc2)c2ccccc2)CC1	i
O=C(Cc1cccs1)N1CC2CC(C1)c1cccc(=O)n1C2 (stereo not drawn)	i
CC1=C(O)C(=O)[C@@H]2O[C@@H]2C1=O	i
O=C(Cc1ccc(F)cc1)N1CCCSCC1CN1CCCC1 (stereo not drawn)	i
CCN1CCN(c2ccc(C(F)(F)F)cn2)CC1	i
CCN(CC)CC#CCNC(=O)CN(C)S(C)(=O)=O	i
CCCCCCCCCCCCCCCCOC[C@@H](O)COP(=O)([O-])OCC[N+](C)(C)C	i
CN(C)C(CN)c1ccccc1Cl (stereo not drawn)	i
COC1CC(OC2CCC3(C)C(CCC4C3CCC3(C)C(C5=CC(=O)OC5)C(OC(C)=O)CC43O)C2)OC(C)C1OC1OC(COC2OC(CO)C(O)C(O)C2O)C(O)C(O)C1O (stereo not drawn)	i
COc1ccc(NC(=O)c2c(O)c3cccnc3n(Cc3ccccc3)c2=O)cc1Cl	i
Cc1ccc(NC(=O)c2cc3cccnc3n(Cc3ccccc3F)c2=O)cc1C	i
COCCCn1c(N)c(C(=O)OCC(C)C)c2nc3ccccc3nc21	i
O=C(CCl)c1ccc(O)cc1O	i
O=C(COc1ccc(Cl)cc1)N1CCN(CCn2cccn2)CC1	i
CCCCC/C=C\C/C=C\C/C=C\C/C=C\CCCC(=O)NC[C@@H](C)O	i
CCCCC[C@@H](O)[C@H]1C(=O)O[C@H](C)[C@@H](O)/C=C/C=C/C=C/C=C/C=C(\C)[C@@H](O)[C@H](O)[C@H](O)C[C@H](O)C[C@H](O)C[C@H](O)C[C@H](O)C[C@@H]1O	i
COc1ccc(NC(=O)c2cc3cccnc3n(Cc3ccccc3)c2=O)c(OC)c1	i
CN(C)C(=O)Oc1ccc2c(c1)O/C(=C\c1ccccc1Br)C2=O	i
CCC1CN2CCC3(C(=O)Nc4cccc(O)c43)C2CC1/C(=C/OC)C(=O)OC (stereo not drawn)	i
COc1oc([C@H]2C/C(=C/C(C)=C/c3ccc([N+](=O)[O-])cc3)CO2)c(C)c(=O)c1C	i
O=C(Cc1ccccc1Cl)N1CCN(Cc2cnnn2-c2ccccc2F)CC1	i
COc1ccc(CC(=O)N2CCN(Cc3nc(C4CC4)cs3)CC2)cc1OC	i
Cc1ccccc1OCC(=O)N1CCN(Cc2nnnn2-c2ccc(Cl)cc2)CC1	i

Four entries from above in a different format:
SMILES | GIRK2 activ
CCN(CC)CC#CCNC(=O)CN(C)S(C)(=O)=O | i
CCCCCCCCCCCCCCCCOC[C@@H](O)COP(=O)([O-])OCC[N+](C)(C)C | i
CN(C)C(CN)c1ccccc1Cl (stereo not drawn) | i
COC1CC(OC2CCC3(C)C(CCC4C3CCC3(C)C(C5=CC(=O)OC5)C(OC(C)=O)CC43O)C2)OC(C)C1OC1OC(COC2OC(CO)C(O)C(O)C2O)C(O)C(O)C1O (stereo not drawn) | i

Remaining list, next part.
SMILES	GIRK2 activ
CN(C)CC1COCCN1C(=O)Cc1cccc2ccccc12 (stereo not drawn)	i
O=C(Cn1c(=O)oc2ccccc21)N1CC2CC(C1)c1cccc(=O)n1C2 (stereo not drawn)	i
COc1ccc(CC(=O)N2CCN(CC(O)c3ccco3)CC2)cc1 (stereo not drawn)	i
FC(F)(F)c1cccc(N2CCNCC2)c1	i
COc1ccc2nc(N(CCN3CCOCC3)C(=O)Cc3ccccc3)sc2c1	i
C[C@]12Cc3cn[nH]c3C[C@@H]1CC[C@@H]1[C@@H]2CC[C@@]2(C)[C@H]1CC[C@]2(C)O	i
O=C(Cc1noc2ccccc12)N1CCN(CCn2ccnc2)CC1	i
COCC1CCCN(CC(=O)Nc2cccnc2)C1 (stereo not drawn)	i
O=C(NCCN1CCN(C(=O)COc2ccc(Cl)cc2Cl)CC1)c1ccsc1	i
C=C(C)C(=O)O[C@H]1[C@@H]2[C@H](C)C(=O)O[C@@H]2C[C@@H](C)[C@@H]2C=CC(=O)[C@]21C	i
CN(C)C(=O)Oc1ccc2c(c1)O/C(=C\C=C\c1ccccc1)C2=O	i
CC(C)c1ccc2c(c1O)CCC1C(C)(C)CCC[C@]21C (stereo partly drawn)	i
O=C(COc1ccccc1)NCC#CCN1CCCC1	i
O=C(CCl)NCC1CCCO1 (stereo not drawn)	i
CCN(CC)CC#CCNC(=O)Nc1ccccc1	i
O=C(NCC#CCN1CCCC1)NCc1cccs1	i
O=C(Cc1ccccc1)NCC#CCN1CCOCC1	i
O=C(NCC#CCN1CCOCC1)c1ccc[nH]c1=O	i
CCCCCCC(C)(C)c1ccc([C@@H]2C[C@H](O)CC[C@H]2CCCO)c(O)c1	i
O=C(Nc1ccc2c(c1)OCCO2)c1c(O)c2cccnc2n(Cc2ccccc2)c1=O	i
O=C(NCC#CCN1CCCC1)c1ccc(Cl)cc1	i
O=C(NCCc1ccccc1)c1c(O)c2sccc2n(Cc2ccccc2)c1=O	i
O=C(NCC#CCN1CCCCCC1)c1ccco1	i
Cc1ccc(NC(=O)c2cc3cccnc3n(Cc3ccc(F)cc3)c2=O)cc1Cl	i
C[C@]12CC[C@H]3[C@@H](CCC4=CC(=O)CC[C@@H]43)[C@@H]1CC[C@@H]2O	i
SMILES	GIRK2 activ
CCCCC/C=C\C/C=C\C/C=C\C/C=C\CCCC(=O)NCCc1c[nH]c2ccc(O)cc12	i
CC(C)(C)c1csc(CN2CCN(C(=O)Cc3ccc(Cl)cc3)CC2)n1	i
CCOc1ccccc1NC(=O)c1cc2cccnc2n(Cc2ccc(F)cc2)c1=O	i
NCCN1CCN(c2ccccc2)CC1	i
COc1cccc(CC(=O)N2CCN(Cc3c(C)noc3C)CC2)c1	i
CS(=O)(=O)N1CCC(C(=O)N2CC3CC(C2)c2cccc(=O)n2C3)CC1 (stereo not drawn)	i
CC1=CC2/C=C(\C)CCCC(O)/C=C/C(=O)OC23C(=O)NC(CC(C)C)C3C1C (stereo not drawn)	i
COCCOC(=O)c1c(C)n(C)c2ccc(OC(=O)N(C)C)cc12	i
CN(CC(=O)NCC#CCN1CCOCC1)S(C)(=O)=O	i
CC(C)(C)c1cc(C=C(C#N)C#N)cc(C(C)(C)C)c1O	i
Cc1cc2c(N3CCN(C)CC3)ncnc2s1	i
Cc1cc(NC(=O)c2cc3cccnc3n(Cc3ccc(F)cc3)c2=O)ccc1Br	i
CC(C)CC(=O)NCC#CCN1CCCCC1	i
CN1CCN(CCCN2c3ccccc3Sc3ccc(Cl)cc32)CC1	i
CCCCOC(=O)c1ccc(NC(=O)c2cc3cccnc3n(Cc3ccccc3)c2=O)cc1	i
Cc1ccccc1OCC(=O)N1CCN(CC(O)C2CC2)CC1 (stereo not drawn)	i
CNCCCCCCN(C)N(O)N=O	i
O=C(CN1C(=O)c2ccccc2C1=O)N1CC2CC(C1)c1cccc(=O)n1C2 (stereo not drawn)	i
CC(C)N(CC#CCNC(=O)c1ccccn1)C(C)C	i
Cc1ccc(C2=NC3(CCNCC3)NC2=O)cc1	i
O=C(NCC#CCN1CCOCC1)NCc1cccs1	i
O=C(C1CCCC1)N1CC2CC(C1)c1cccc(=O)n1C2 (stereo not drawn)	i
CC(=O)NCC#CCN1CCCCC1	i
CCOc1ccc(CC(=O)N2CCN(CCn3ccnc3-c3ccccc3)CC2)cc1	i
CC(C)(C)C(=O)NCC#CCN1CCCCC1	i
C[C@]12CC[C@H]3[C@@H](CC[C@]4(O)C[C@@H](O[C@@H]5O[C@H](CO)[C@@H](O)[C@H](O)[C@H]5O)CC[C@]34C=O)[C@@]1(O)CC[C@@H]2c1ccc(=O)oc1	i
C/C=C(\C)C(=O)OC1C(C)=C2C(C1OC(=O)CCCCCCC)C(C)(OC(C)=O)CC(OC(=O)CCC)C1(O)C2OC(=O)C1(C)O (stereo not drawn)	i
COc1cccc(OCC(=O)N2CCN(CC(F)(F)F)CC2)c1	i
CC(C)CC(=O)NCC#CCN(C(C)C)C(C)C	i

Among those listed so far, these have four or more nitrogen atoms:
SMILES	GIRK2 activ
C[C@@H]1NC(=O)[C@H](CCCCCC(=O)[C@@H]2CO2)NC(=O)[C@H]2CCCN2C(=O)[C@H](Cc2ccccc2)NC1=O	i
COc1ccc(CC(=O)N2CCN(CCn3cccn3)CC2)cc1OC	i
O=C(Nc1ccc(Cl)cc1C(=O)c1ccccc1)c1nnn(-c2ccc(F)cc2)n1	i
Cn1c(CN2CCN(C(=O)Cc3cccs3)CC2)nc2ccccc21	i
CN1CCN(Cc2nc3ccccc3c(=O)[nH]2)CC1	i
COCCCn1c(N)c(C(=O)OCC(C)C)c2nc3ccccc3nc21	i
O=C(COc1ccc(Cl)cc1)N1CCN(CCn2cccn2)CC1	i
O=C(Cc1ccccc1Cl)N1CCN(Cc2cnnn2-c2ccccc2F)CC1	i
Cc1ccccc1OCC(=O)N1CCN(Cc2nnnn2-c2ccc(Cl)cc2)CC1	i
O=C(Cc1noc2ccccc12)N1CCN(CCn2ccnc2)CC1	i
Cc1cc2c(N3CCN(C)CC3)ncnc2s1	i
CNCCCCCCN(C)N(O)N=O	i
CCOc1ccc(CC(=O)N2CCN(CCn3ccnc3-c3ccccc3)CC2)cc1	i
